# INS promoter inh = TRM-6 insulin promoter activity inhibition; inhibition, % at 2 µM; TRM-6 cells (human fetal islet line), insulin promoter-eGFP reporter, imaging; reporter expression induced with tamoxifen; 130,000 tested, 0.9% active;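 active = inhibition above the mean plus 3 SD, with well images judged a real hit on visual review, cut at about 60% in these data, passing the limit was not always enough; inconclusive = inhibition over the cutoff but images rejected on review; inactive = inhibition not above the cutoff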
# PKD1 inh = inhibitors of human PKD1 kinase; Q15139; PKD1 kinase fluorescence polarization assay; inhibition, %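 (about 10 µM by stock and volumes)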; AID 797; 200,000 tested, 0.056% active;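 active = inhibition of 50% or more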;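 note: controls were vehicle for no effect and a reference inhibitor for full effect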
# RGS16-Gao HTS = modulates binding between human RGS16 and Galphao; O15492+P09471; bead-based flow cytometry RGS16-Galphao binding, fluorescence; actives lie on both sides; binding response (% of control), % at 10 µM; 220,000 tested, 0.38% active; AID 1441;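 active = below 25% or above 175%, edge rows of some plates excepted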;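 note: Galphao activated by GDP with aluminum fluoride before binding; 100% = wells without compound and 0% = beads without RGS; some results beyond the cut were filed as inactive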
# Target sequence (O15492 whole entry, looked up): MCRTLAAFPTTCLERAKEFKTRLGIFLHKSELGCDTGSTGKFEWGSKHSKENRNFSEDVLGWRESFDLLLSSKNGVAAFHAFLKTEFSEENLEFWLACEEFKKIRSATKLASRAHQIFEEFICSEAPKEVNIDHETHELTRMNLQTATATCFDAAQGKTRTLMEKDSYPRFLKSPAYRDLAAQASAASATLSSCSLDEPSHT
# Target sequence (P09471 whole entry, looked up): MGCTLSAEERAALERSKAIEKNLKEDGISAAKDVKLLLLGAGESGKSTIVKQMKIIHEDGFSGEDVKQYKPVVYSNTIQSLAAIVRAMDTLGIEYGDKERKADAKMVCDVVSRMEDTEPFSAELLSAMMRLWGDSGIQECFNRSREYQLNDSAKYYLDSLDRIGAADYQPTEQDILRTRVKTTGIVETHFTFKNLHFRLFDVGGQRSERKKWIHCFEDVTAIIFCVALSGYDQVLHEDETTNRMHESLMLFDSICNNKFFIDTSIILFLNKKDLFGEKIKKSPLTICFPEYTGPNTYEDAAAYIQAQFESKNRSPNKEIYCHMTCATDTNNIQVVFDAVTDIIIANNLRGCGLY
# HSV replic up = HSV replication enhancement; AID 1956; HSV replication augmentation in cells, fold increase; 220,000 tested, 0.005% active; maximum fold increase;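 active = peak rise of 1.5-fold or more in the series; inconclusive = self-fluorescent or not available for retest; tested in PC3 cells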;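 note: first round at 10 µM; read as green reporter fluorescence; hits show the peak of a series up to 25 µM; 1 = signal of infected wells without compound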
# GALR2 ag = GALR2 (human) receptor agonism | O43603 | GALR2-expressing cells, agonist activation read-out | activation, %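 (tested at 5 µM)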 | 140,000 tested, 0.48% active | AID 803;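 active = above mean plus 3 SD of all compounds, about 5% in these data, not always enough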;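 note: 0% = vehicle buffer wells and 100% = reference agonist at full effect; tested in CHO reporter cells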
# Target sequence (O43603 whole entry, looked up): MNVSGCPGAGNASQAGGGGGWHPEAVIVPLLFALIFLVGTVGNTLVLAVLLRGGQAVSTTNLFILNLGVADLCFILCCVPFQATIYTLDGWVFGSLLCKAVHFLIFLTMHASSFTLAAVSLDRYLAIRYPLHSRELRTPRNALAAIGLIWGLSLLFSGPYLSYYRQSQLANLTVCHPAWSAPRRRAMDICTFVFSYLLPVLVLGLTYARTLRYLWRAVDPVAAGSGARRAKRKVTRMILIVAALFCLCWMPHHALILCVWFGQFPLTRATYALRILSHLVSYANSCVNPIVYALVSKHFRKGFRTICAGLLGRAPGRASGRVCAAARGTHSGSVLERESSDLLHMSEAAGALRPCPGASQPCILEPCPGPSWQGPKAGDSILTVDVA
# INS promoter inh cell count = also measured in INS promoter inh; calls as there; normalized cell count, %; measured here: cell count, toxicity; reference of the scale not given here;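 cells exposed to compound for 48 h; stained nuclei by imaging scaled within each plate; lower means fewer cells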
# HSV replic up primary fold = further read-out of HSV replic up, marked with its call; fold increase; compound at 10 µM; measured here: primary screen fold increase 10 uM; tested in PC3 cells;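 GFP signal in the first replicate; 1 = infected wells without compound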
# Starred values were filed as active, the others as inactive; i = inactive; ? = inconclusive; / = no result given.
# Each structure is followed by: HSV replic up | INS promoter inh cell count | INS promoter inh | HSV replic up primary fold | PKD1 inh | GALR2 ag | RGS16-Gao HTS
> COC(=O)C(NC(=O)c1ccc(F)cc1)(Nc1ncc(S(=O)(=O)c2ccc([N+](=O)[O-])cc2)s1)C(F)(F)F (stereo unspecified)
  i | 127.6 | -60.7 | 0.95 | -4.6 | -3.3 | 98.6
> COc1ccc(N2CCN(C(=S)Nc3cc(C)cc(C)c3)CC2)cc1
  i | 101.8 | -67.9 | 1.24 | -12.1 | -2.8 | 101.8
> O=S(=O)(NC1CCCCCC1)c1cccc2cccnc12
  i | / | / | 1.01 | -3.2 | 0.3 | 98.6
> O=C(CCC1CCCCC1)Nc1cccnc1
  i | 88.2 | -50.0 | 0.91 | -2.6 | -1.1 | /
> CC(=O)c1cc2cc(O)ccc2o1
  i | / | / | 0.84 | -7.3 | -2.1 | 78.0
> CNC(=O)N(O)C1N(/N=C/c2cccnc2)C(=S)SC1(C)C (stereo unspecified)
  i | / | / | 0.97 | / | / | 100.4
> O=C(Cc1c(C(=O)O)[nH]c2ccccc12)NCCN1CCN(c2cccc(Cl)c2)CC1
  i | / | / | 1.02 | -7.5 | -0.6 | 101.9
> C/C(Cn1nnc([N+](=O)[O-])n1)=N\NC(=O)c1ccc(Cl)c(Cl)c1
  i | / | / | 0.83 | -2.3 | -1.8 | 97.5
> C/C=C/C(=O)N1CC2(CC(c3cccc(NC(=O)CCCCC)c3)=NO2)C[C@H]1C(N)=O (stereo partly specified)
  i | / | / | 0.8 | / | / | 102.6
> O=C(O)c1cccc(N2CCCC2)c1
  i | 119.1 | -16.1 | 1 | 9.7 | -2.8 | 100.6
> O=S(=O)(NC1c2cccc3cccc(c23)C1Sc1ncccn1)c1ccc(Cl)cc1 (stereo unspecified)
  i | 93.4 | -40.7 | 0.85 | -14.2 | 0.6 | 93.5
> CCOc1ccc(S(=O)(=O)N(CC(=O)O)c2ccc(C)cc2)cc1
  i | 236.8 | -16.1 | 1.03 | -9.0 | -2.2 | 101.5
> CC(C)c1ccc(-c2nnn(CCC(=O)O)n2)cc1
  i | 31.4 | 26.7 | 0.88 | 9.7 | -2.0 | 97.9
> Cc1ccc(-c2nn(-c3ccccc3)cc2C(=O)Nc2ccc(C)c(S(=O)(=O)N3CCOCC3)c2)cc1
  i | / | / | 0.95 | 9.1 | -0.9 | 101.8
> CC(C)OC(=O)/C(=C\c1ccccc1)NC(=O)c1ccccc1
  i | / | / | 0.99 | -4.0 | / | 103.7
> CCCCC1(O)CC(C(F)(F)F)=NN1C(=O)COc1ccccc1 (stereo unspecified)
  i | 102.6 | -100.0 | 0.93 | 3.6 | -1.3 | 106.9
> COc1ccc(-n2c(CNC(=O)c3ccc(S(=O)(=O)N4CCCC4)cc3)n[nH]c2=S)cc1
  i | 116.4 | -9.1 | 0.95 | -3.1 | 0.3 | 99.8
> CN(C)c1ccc(NC(=O)CSc2n[nH]c(-c3ccco3)n2)cc1
  i | / | / | 0.91 | 4.0 | / | 68.5
> CCc1ccc(N2CCN(C(=O)N3CCOCC3)CC2)cc1
  i | / | / | 0.91 | -2.1 | / | 94.2
> Cc1c(C(=O)NC2CCCCC2)oc2c1C(=O)CC(C)(C)C2
  i | 108.8 | 57.1 | 0.76 | -6.8 | -1.9 | 104.4
> CC1(C)OC(C(N)=O)C(C(N)=O)O1 (stereo unspecified)
  i | 98.3 | 15.4 | 0.87 | 1.0 | -2.0 | 91.7
> CC1CC(C)CN(C(=O)CSc2nc(N)cc(=O)[nH]2)C1 (stereo unspecified)
  i | 70.3 | 22.2 | 0.92 | -0.8 | / | 99.9
> Cc1cccn2c(=O)c(/C=N/O)c(N3CCOCC3)nc12
  i | 85.0 | 30.8 | 0.78 | 4.5 | / | 100.0
> COc1cccc(C(=O)NCc2ccccc2OC)c1
  i | 96.6 | 0.0 | 0.94 | -3.5 | -1.1 | 87.2
> CCN(CC)c1ccc2cc(C#N)c(=O)oc2c1
  ? | 96.0 | -10.0 | / | -10.5 | / | 114.2
> FC(F)Oc1ccc(NC(=S)NCCc2ccccn2)cc1
  i | 104.4 | 18.2 | 1.03 | -3.6 | / | 101.3
> CCCc1[nH]n(-c2ccc([N+](=O)[O-])cc2)c(=O)c1C(C)=NCc1ccncc1
  i | / | / | 1 | / | / | 109.7
> C/C(=N\NC(=S)NC(C)C)c1cccc([N+](=O)[O-])c1
  i | 49.7 | -64.3 | 0.98 | 6.4 | -0.9 | 110.8
> COc1ccc(Cl)cc1S(=O)(=O)NC1CC(C)(C)NC(C)(C)C1
  i | 115.0 | -64.3 | 0.94 | -0.4 | / | 97.7
> O=C(Nc1c(C(=O)c2ccccc2)oc2ccccc12)c1cc(-c2ccccc2O)n[nH]1
  i | 150.1 | -17.2 | 0.51 | -16.9 | 2.7 | 109.0

# Entries of single compounds from above. Values in the order: HSV replic up | INS promoter inh cell count | INS promoter inh | HSV replic up primary fold | PKD1 inh | GALR2 ag | RGS16-Gao HTS
# Profile of Cc1cccn2c(=O)c(/C=N/O)c(N3CCOCC3)nc12 = i | 85.0 | 30.8 | 0.78 | 4.5 | / | 100.0
# Profile of CN(C)c1ccc(NC(=O)CSc2n[nH]c(-c3ccco3)n2)cc1 = i | / | / | 0.91 | 4.0 | / | 68.5
# Profile of CCCCC1(O)CC(C(F)(F)F)=NN1C(=O)COc1ccccc1 (stereo unspecified) = i | 102.6 | -100.0 | 0.93 | 3.6 | -1.3 | 106.9
# Profile of Cc1c(C(=O)NC2CCCCC2)oc2c1C(=O)CC(C)(C)C2 = i | 108.8 | 57.1 | 0.76 | -6.8 | -1.9 | 104.4

# Next records
# Each structure is followed by: HSV replic up | INS promoter inh cell count | INS promoter inh | HSV replic up primary fold | PKD1 inh | GALR2 ag | RGS16-Gao HTS
> Cc1ccc(OCCCNCCO)c(Br)c1
  i | 122.4 | 3.1 | 0.973 | 4.8 | -1.6 | 105.5
> O=c1c(C(c2ccc(Br)cc2)c2c(O)nc3n(c2=O)CCCS3)c(O)nc2n1CCCS2
  i | / | / | 0.96 | / | / | 100.4
> CCOc1ccc(C2CC(c3cccc(OC)c3)Nc3nc(N)nn32)cc1 (stereo unspecified)
  i | / | / | 0.8 | -10.9 | -0.9 | 99.2
> O=c1cc(C(F)(F)F)c2sc(N3CCCCC3)nc2[nH]1
  i | / | / | 0.92 | -12.7 | -0.6 | 97.1
> Cc1ccc(C(=O)Nc2ccon2)cc1S(=O)(=O)N1CCOCC1
  i | 139.4 | 0.0 | 0.97 | -1.8 | -1.7 | 75.0
> COC(=O)c1cn(C(=O)c2cccc(C)c2)c2ccccc12
  i | 62.6 | -483.3 | 0.97 | -2.2 | / | 93.2
> CC(C)=CC(=O)Nc1nnc(-c2ccccc2)s1
  i | 65.0 | -3.2 | 1.09 | -3.9 | -1.9 | 104.4
> O=C(CCSc1ccc(Cl)cc1)NCc1ccccn1
  i | 120.6 | 6.7 | 1.01 | 4.6 | / | 103.4
> O=C(Cc1ccccc1)N1CCc2ccccc21
  i | 133.0 | 10.0 | 0.93 | -5.2 | -0.8 | 102.1
> CS(=O)(=O)c1cnc2c(-c3ccsc3)cnn2c1N
  i | 124.4 | 61.1 | 1.15 | 2.6 | / | 96.4
> NC(=S)N/N=C1\CCSc2ccc(Cl)cc21
  i | / | / | 0.9 | / | / | 100.0
> C=CCn1c(-c2cccn(Cc3cccc(Cl)c3)c2=O)n[nH]c1=S
  i | 108.3 | -52.9 | 0.84 | -7.8 | -0.8 | 88.2
> CCCc1cc(=O)[nH]c(SCC(=O)Nc2ccc(Br)cc2Br)n1
  i | / | / | 1.06 | -1.5 | / | 100.3
> CC(C)(C)C(=O)NC(Nc1cccc2cccnc12)C(Cl)(Cl)Cl (stereo unspecified)
  / | / | / | / | -3.6 | 0.0 | 103.1
> COc1ccc(CN(C(=O)c2snc(C(N)=O)c2N)C(C(=O)NC(C)(C)C)c2ccco2)cc1 (stereo unspecified)
  i | / | / | 1.1 | -7.1 | 0.1 | 104.8
> CC(C)Cn1nc(NC(=O)C(C)(C)C)c2cc3ccccc3nc21
  i | / | / | 0.89 | -8.1 | 4.0 | 112.7
> CCOC(=O)c1cc(-c2ccccc2)n(CC(=O)N2CCCC2)c1C
  / | / | / | / | 6.1 | -1.2 | 104.1
> CSc1ccc(CN(C)CC(=O)NCc2ccc(F)cc2)cc1
  i | / | / | 0.96 | 0.9 | / | 101.9
> CC1CCCCN1Cc1nc2c(c(=O)n(C)c(=O)n2C)n1CCCc1ccccc1 (stereo unspecified)
  i | 18.5 | -13.5 | 0.92 | -2.5 | -0.4 | /
> O=C(Nc1cccnc1)Nc1ccc(Br)cc1Cl
  i | 192.2 | 54.3 | 0.78 | 1.7 | -0.5 | 94.1
> COC(=O)c1ccccc1NC(=O)Nc1nnc(N2CCCCC2C)s1 (stereo unspecified)
  / | 100.0 | -5.0 | / | -18.7 | 0.8 | 107.6
> CC1C(c2ccccc2)=[N+]([O-])C2(CCCC2)N1O (stereo unspecified)
  i | 146.6 | -30.6 | 0.89 | 10.7 | -2.7 | 105.1
> COc1ccc(-n2c(SCC(=O)Nc3cc(C(=O)O)ccc3C)nc3ccccc3c2=O)cc1Cl
  i | / | / | 1.03 | / | / | 105.5
> Cc1ccccc1C(=O)c1c[nH]c(C(=O)N2CCN(c3ccccc3F)CC2)c1
  i | 171.4 | 54.5 | 0.84 | -11.2 | / | 110.4
> COc1cccc(C2CCCCN2Cc2nc(-c3ccc(C)o3)oc2C)c1 (stereo unspecified)
  i | 50.4 | -100.0 | 1.13 | -4.3 | / | 102.3
> COCc1cc(C)nc2sc3c(=O)n(-c4cccc5ccccc45)nnc3c12
  i | / | / | 0.96 | -1.7 | -0.8 | 93.9
> CCN(C(=O)CN1CCc2ccccc21)c1c(N)n(Cc2ccccc2)c(=O)[nH]c1=O
  i | 132.1 | -5.0 | 1.58 | 5.8 | / | 101.8
> CC1(C)Cc2nc3sc(C(=O)O)c(N)c3cc2CS1
  i | 131.8 | -35.1 | 1.12 | -6.1 | / | 102.1
> COc1cc2nc(N(C)C)nc(N)c2cc1OC
  i | / | / | 0.72 | 12.8 | -3.0 | 98.0
> CC(C)CN1CN(Cc2ccccc2)CNC1=S
  i | / | / | 0.97 | 1.3 | 0.3 | 109.9

# 4 compounds from above, showing only HSV replic up primary fold and RGS16-Gao HTS:
canonical_smiles | HSV replic up primary fold | RGS16-Gao HTS
Cc1c(C(=O)NC2CCCCC2)oc2c1C(=O)CC(C)(C)C2 | 0.76 | 104.4
COc1ccc(CN(C(=O)c2snc(C(N)=O)c2N)C(C(=O)NC(C)(C)C)c2ccco2)cc1 (stereo unspecified) | 1.1 | 104.8
CC1(C)OC(C(N)=O)C(C(N)=O)O1 (stereo unspecified) | 0.87 | 91.7
CCOc1ccc(S(=O)(=O)N(CC(=O)O)c2ccc(C)cc2)cc1 | 1.03 | 101.5

# (cont.)
# Each structure is followed by: HSV replic up | INS promoter inh cell count | INS promoter inh | HSV replic up primary fold | PKD1 inh | GALR2 ag | RGS16-Gao HTS
> CCOC(=O)C=C1CCN(c2ncc(C(F)(F)F)cc2Cl)CC1
  i | 129.2 | -25.9 | 1.15 | -8.0 | -2.9 | 94.9
> Cc1ccc(S(=O)(=O)N(C)c2ccc(C(=O)NCC3CCCO3)cc2)cc1 (stereo unspecified)
  i | 181.7 | -7.0 | 0.81 | 5.7 | -0.1 | 101.9
> CN1C2C=C3C(C#N)=C(N)C(C#N)(C#N)C(c4ccc(Br)cc4)C3C1CC2 (stereo unspecified)
  i | 99.8 | -281.2 | 0.99 | 5.9 | 0.1 | 112.4
> CCN(CC)S(=O)(=O)c1ccc2nc(CCl)[nH]c2c1
  i | 142.4 | 21.4 | 1.01 | 4.2 | / | 98.7
> Cc1oc(C(N)=O)nc1-c1ccccc1
  i | / | / | 0.89 | / | / | 100.3
> COc1ccc(C(=O)CC(c2ccccc2)S(=O)(=O)c2ccc(C)cc2)cc1 (stereo unspecified)
  i | 90.4 | -18.5 | 0.95 | -2.2 | -0.8 | 55.6
> O=C(O)CCCc1nc(-c2ccc(Cl)cc2)no1
  i | 126.6 | 0.0 | 0.96 | 1.0 | -1.0 | 104.0
> Cc1ccc(N(CC(=O)O)S(C)(=O)=O)cc1
  i | / | / | 1.01 | -4.3 | / | 93.7
> COC(=O)N/N=C/c1ccc(Oc2ccccc2)cc1
  i | / | / | 1.01 | -1.0 | / | 95.5
> COc1ccc(C(C(=O)NC2CCCC2)N(Cc2ccc(C)cc2)C(=O)c2ccn[nH]2)cc1OC (stereo unspecified)
  i | / | / | 0.67 | 2.8 | -1.1 | 105.2
> CCN(Cc1ccccc1)C(=O)Cn1cc2c(n1)CCCC2
  i | / | / | 1.18 | 1.2 | -2.5 | 101.1
> O=C1CC(c2ccc(Cl)c([N+](=O)[O-])c2)c2ccc3ccccc3c2N1 (stereo unspecified)
  i | 117.7 | -18.9 | 0.84 | -5.8 | -0.4 | 95.2
